# Assay outcomes as filed in PubChem.
# FGF22 binding: FGF22 (human) thermal shift binding. 340,000 tested, 1.5% active. Q9HCT0. recombinant FGF22 thermal shift, SYPRO orange fluorescence; percent of sucrose octasulfate shift, DMSO zero. calls only at 9.99 µM;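 active = melting point raised past a set limit in the mean and every replicate; three in four hits are not shown here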
# Ecoli rRNA inh: inhibits bacterial ribosomal RNA function over humanized ribosomes. GFP signal change (wild-type ribosome), % (no concentration beside the values). 350,000 tested, 1.6% active. E. coli WT GFP vs humanized-ribosome RFP mutants, fluorescence, 24 h; hits give low values; DMSO median 0, no signal -100. AID 720706;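 active = significant combined selectivity score with lowered wild-type GFP, culture density cut under 30%, mutant RFP and density less affected; inactive = any of these conditions unmet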; also: one replicate is shown; some compounds called inactive have numbers as strong as hits
# Ecoli growth: inhibitors of Escherichia coli growth. OD600, 23 h; hits give low values. OD600 absorbance (test concentration not listed). 330,000 tested, 0.21% active;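 active = OD600 absorbance below the run mean of sample wells minus 3.6 SD, in any replicate, cut at about 0.56 in these data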;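 also: stock transfer was 300 nL into about 60 µL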
# HNF4A DNA FP: change in binding of human HNF4 alpha to DNA; P41235; HNF4a-FITC DNA binding, fluorescence polarization, 1 h; activity change, % at 10 µM; 360,000 tested, 0.3% active; in the data active = activity change above about 30%, passing the limit was not always enough;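 also: controls were the assay level and a saturating level of protein; the project sought stronger binding though the title names inhibitors; some compounds called inactive have numbers as strong as hits; positive values seem to mean higher polarization but the record does not say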
# Target sequence (P41235 whole entry, looked up): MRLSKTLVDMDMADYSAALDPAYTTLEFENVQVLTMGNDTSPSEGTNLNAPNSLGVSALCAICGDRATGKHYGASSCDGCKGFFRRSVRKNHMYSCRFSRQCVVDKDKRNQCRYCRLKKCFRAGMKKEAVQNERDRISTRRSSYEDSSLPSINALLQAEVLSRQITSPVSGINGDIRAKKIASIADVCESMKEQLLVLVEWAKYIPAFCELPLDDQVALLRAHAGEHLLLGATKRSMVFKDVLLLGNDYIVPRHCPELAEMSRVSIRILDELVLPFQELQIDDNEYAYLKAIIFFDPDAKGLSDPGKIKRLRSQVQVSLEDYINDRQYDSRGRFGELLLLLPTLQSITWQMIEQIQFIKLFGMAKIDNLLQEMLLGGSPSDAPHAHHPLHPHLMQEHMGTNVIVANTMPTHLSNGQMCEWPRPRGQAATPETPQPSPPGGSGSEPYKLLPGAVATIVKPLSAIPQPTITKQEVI
# UCH37 inh: human UCH37 deubiquitinating enzyme inhibition; 330,000 tested, 0.33% active; purified proteasome/UCH37, Ub-AMC cleavage fluorescence; AID 588478; Q9Y5K5; inhibition, % (test concentration not listed);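 active = mean of two replicates above 20%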;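 also: 0% = compound-free wells with enzyme and 100% = wells lacking proteasome; stock transfer was 100 nL into about 20 µL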
# Target sequence (Q9Y5K5 whole entry, looked up): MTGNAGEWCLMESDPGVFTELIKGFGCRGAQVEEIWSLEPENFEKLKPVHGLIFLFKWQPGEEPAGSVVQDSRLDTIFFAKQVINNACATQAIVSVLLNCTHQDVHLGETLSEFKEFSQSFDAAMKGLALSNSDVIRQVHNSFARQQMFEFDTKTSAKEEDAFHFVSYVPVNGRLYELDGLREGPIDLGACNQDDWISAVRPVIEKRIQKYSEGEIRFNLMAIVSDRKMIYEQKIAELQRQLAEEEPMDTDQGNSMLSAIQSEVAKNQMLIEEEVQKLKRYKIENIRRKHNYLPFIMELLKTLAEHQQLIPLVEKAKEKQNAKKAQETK
#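 Assay system: Proteasome-bound UCH37. Buffer or medium: pH 7.4 Tris-HCl (50 mM) with ovalbumin, ATP-MgCl2, DTT. Incubation: 30 min preincubation with enzyme, 25 min cleavage at room temperature. Measured by: fluorescence, ex 355 nm, em 460 nm. Read-out basis: percent inhibition. Control set: wells without proteasome as full block, compound-free enzyme plus substrate as uninhibited.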
# ALR inh: human ALR oxidase inhibition via reduced H2O2. inhibition, % (test concentration not listed). P55789. AID 485317. 290,000 tested, 3.8% active. purified ALR, DTT oxidation, H2O2 HRP-luminol luminescence;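 active = mean and each replicate at 75% or more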;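 also: stock transfer was 7.5 nL into about 7.5 µL; 0% = neutral wells and 100% = wells with inactivated enzyme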
# Target sequence (P55789 whole entry, looked up): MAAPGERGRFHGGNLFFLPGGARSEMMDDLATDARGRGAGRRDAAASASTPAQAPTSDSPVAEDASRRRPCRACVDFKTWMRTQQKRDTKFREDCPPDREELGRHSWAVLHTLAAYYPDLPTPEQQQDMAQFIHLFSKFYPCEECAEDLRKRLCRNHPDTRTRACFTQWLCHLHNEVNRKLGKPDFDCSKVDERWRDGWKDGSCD
# Beta2AR agonist: human beta-2 adrenergic receptor agonism by FAP; P07550; Am2.2-beta2AR cells, FAP receptor internalization, flow cytometry; reference of the scale not given here; response, % (no concentration beside the values); 340,000 tested, 0.43% active; AID 504454;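 active = response above a set limit, near 3 SD of response in nonfluorescent compounds, cut at about 42% in these data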;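 also: stock transfer was 100 nL into about 11 µL; a reference agonist was the positive control; negative values mostly stem from fluorescent compounds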
# Ecoli rRNA inh OD600: further read-out of Ecoli rRNA inh, marked with its call; OD600 change, %; measured here: OD600 growth;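 optical density of the mix in the first replicate; 0 = DMSO median and -100 = no signal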
# Ecoli rRNA inh RFP: further read-out of Ecoli rRNA inh, marked with its call; RFP signal change, %; measured here: RFP humanized mutant strains;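 first replicate; 0 = DMSO median and -100 = no signal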
# Starred values were filed as active, the others as inactive; i = inactive; x = not tested or not shown; + = active, no number.
SMILES,FGF22 binding,Ecoli rRNA inh,Ecoli rRNA inh OD600,Ecoli rRNA inh RFP,Ecoli growth,HNF4A DNA FP,UCH37 inh,ALR inh,Beta2AR agonist
Cc1c(NC(=O)c2ccccc2)c(=O)n(-c2ccccc2)n1C,x,x,x,x,0.73,-0.5,-1.4,0,6
Cc1ccc(C(=O)NC(=S)Nc2nc(-c3cccc([N+](=O)[O-])c3)cs2)c(Cl)c1,i,11,0,5.5,x,-3.3,x,-5,9
COc1ccc(C(=O)NCC(=O)OCc2c(Cl)cccc2Cl)cc1OC,i,-14,-8,-2.1,0.66,-4.7,-2.7,x,-1
O=C(Cn1cc[n+](Cc2ccccc2)c1)c1ccc([N+](=O)[O-])cc1,i,-11,4,2.9,0.67,7.7,0.0,-13,1
O=C(CN1CCN(C(=O)c2cccc(-n3cnnn3)c2)CC1)Nc1ccccc1Cl,i,-2,-1,-2.5,0.64,-3.7,1.0,-5,-4
CCN(CC)C(=O)Oc1ccccc1NC(C)=O,x,x,x,x,0.73,5.0,0.7,-2,4
COc1ccc2[nH]c(C(=O)N3CCC(Cc4ccccc4)CC3)cc2c1,x,x,x,x,0.7,0.9,-3.5,-4,6
Cc1cc(C(C)(C)C)ccc1OCCn1ccnc1,x,x,x,x,0.7,-3.6,3.1,x,-21
Cc1nc(Cc2nnc(SCC(=O)Nc3c(C)cccc3C)o2)cs1,i,7,16,-2.6,0.65,-3.6,3.3,-6,1
CCC(C(=O)OCC(=O)Nc1cccc(C(C)=O)c1)c1ccccc1 (configuration not stated),i,-24,-26,-2.3,0.67,0.5,3.8,-5,-3
CC(=O)c1ccc(NC(=O)CSc2nc3[nH]ncc3c(=O)[nH]2)cc1,i,8,25,1.2,0.7,-1.9,1.4,-4,3
CCN(CC)C(=O)c1cccc(-c2csc(C(C)(O)c3ccccc3)n2)c1 (configuration not stated),i,-1,-17,-3.0,x,1.4,x,x,x
COc1ccc(C(N)=O)cc1NC(=O)CC(O)(C(F)(F)F)C(F)(F)F,x,7,6,-4.7,0.71,-0.2,-1.3,45,-6
Cc1ccc(OCc2n[nH]c(=S)n2-c2ccc(Cl)cc2)cc1,i,-10,-9,17,0.62,0.4,1.7,x,4
CCOC(=O)C1(CCOC)CCCCC1=O (configuration not stated),i,5,7,-2.1,x,1.3,x,x,x
CN1CCN(CCCNC(=O)Nc2ccc([N+](=O)[O-])cc2)CC1,i,7,5,-0.9,0.58,4.7,8.4,-12,2
CCC(C(=O)OCC(=O)Nc1c(C)nn(-c2ccccc2)c1C)c1ccccc1 (configuration not stated),i,-4,-19,1.1,0.6,1.1,-1.0,9,-11
Cn1cnc([N+](=O)[O-])c1N=C(N)N,i,9,18,-0.7,0.67,6.2,8.4,x,0
COc1ccc2[nH]c(=O)c(CN(C(=O)c3cccnc3)c3ccccc3OC)cc2c1,i,5,-1,-8.4,0.71,-0.6,-86,-1,-4
CN1C[C@@H]2[C@@H]3C(=O)N(Cc4ccccc4)C(=O)[C@@H]3[C@](Cc3ccccc3)(C1=O)N2C(=O)c1ccccc1,i,1,4,-8.2,x,-2.3,3.3,x,9
O=C(NNC(=S)NCc1ccccc1)c1ccc(Br)o1,i,-13,-14,-4.2,0.65,2.4,5.7,52,5
Cn1ncc2c(NCCc3ccccc3)nc(Cl)nc21,i,-25,-26,-9.1,0.71,5.9,3.5,x,3
CC(C)c1ccc(NC(=S)Nc2ccc3[nH]c(=O)[nH]c3c2)cc1,i,-22,6,20,0.68,2.2,4.1,66,-24
O=C(NCCCn1ccnc1)c1ccc(-c2cccc(C(F)(F)F)c2)o1,i,-12,-19,3.2,0.61,-0.2,0.1,-53,13
COc1cc(C2NC(=O)NC(C)=C2C(=O)OCc2ccc(C)cc2)cc(OC)c1O (configuration not stated),x,x,x,x,0.67,-1.9,1.9,4,5

# Carrying on.
SMILES,FGF22 binding,Ecoli rRNA inh,Ecoli rRNA inh OD600,Ecoli rRNA inh RFP,Ecoli growth,HNF4A DNA FP,UCH37 inh,ALR inh,Beta2AR agonist
O=C(c1ccncc1)N1CCN(c2cccc(C(F)(F)F)c2)CC1,x,x,x,x,0.7,0.5,0.2,-19,4
CCC1S/C(=N/N=C/c2ccco2)NC1=O (configuration not stated),i,6,8,0.4,x,-5.0,x,-7,-1
Cn1nccc1C(=O)OCC(=O)Nc1cccc(Cl)c1,i,4,6,1.7,0.66,2.1,4.1,1,-3
CCOC(=O)c1c(N)sc(C(O)(C(F)(F)F)C(F)(F)F)c1-c1ccc(Cl)cc1,x,x,x,x,0.7,2.8,3.7,7,4
COCCCNC(=O)CC1C[C@H](C(=O)N2CCCCC2)[C@@]2(C)c3[nH]c4ccccc4c3CCN2C1=O (some centres not stated),i,15,14,0.8,0.71,0.7,4.0,x,-8
O=C1CCCN1CC1CCN(Cc2nc(CC3CC3)no2)CC1,i,6,-6,-1.8,0.63,3.9,1.2,-11,-11
CC(=O)Nc1ccc(SCC(=O)Nc2cc(C(C)(C)C)nn2-c2ccccc2)cc1,i,-14,-20,-4.3,0.72,-1.5,-1.2,89*,-1
Cc1cc(C(=O)OCC(=O)Nc2ccc(S(N)(=O)=O)cc2)c2ccccc2n1,i,-1,-11,0.1,x,5.3,x,-7,3
O=C(Cc1cccc(NC(=O)C2CCCN(C(=O)C3CCC3)C2)c1)Nc1cccc(C(=O)N2CCOCC2)c1 (configuration not stated),i,10,7,3.7,0.69,1.6,5.4,x,-8
Cc1ccccc1N/C(SCc1cccc(Br)c1)=C(/C#N)C(N)=O,x,x,x,x,0.65,1.3,2.6,3,-8
CCNS(=O)(=O)c1ccc(CCC(=O)NCc2cccnc2)cc1,i,3,2,1.9,0.67,-0.6,1.3,2,-4
CC1CCN(CCOCCOc2ccccc2-c2ccccc2)CC1,x,x,x,x,0.63,-13,1.5,-8,4
Cc1ccc(OCc2cc(C(=O)N3CCN(CC(=O)NC(C)C)CC3)no2)cn1,i,4,7,-1.9,0.68,-1.1,0.1,-3,-3
CSCc1ccc(C(=O)Nc2cc(C)cc(C)c2)cc1,x,x,x,x,0.69,3.6,6.7,-1,2
CSc1ccc(NC(=O)Nc2cccn(Cc3ccccc3)c2=O)cc1,i,-30*,-19*,0.6*,0.67,0.6,-28,-9,2
N#CC(C#N)=C1CCc2ccccc2N1,x,x,x,x,0.69,-2.4,5.5,x,1
Cc1nn(-c2ccccc2)c2sc(C(=O)NNC(=O)COc3cccc4ccccc34)cc12,x,x,x,x,0.72,1.4,-1.5,0,0
COc1ccc(N(C)S(=O)(=O)c2c(C)[nH]c(=O)[nH]c2=O)c(OC)c1,x,x,x,x,0.73,0.0,2.4,-11,0
CC(=O)Nc1ccc(S(=O)(=O)N2CCSC2c2ccccc2)cc1 (configuration not stated),x,x,x,x,0.72,6.1,6.3,-4,-7
OC[C@@H]1[C@@H](c2ccc(F)cc2)C(c2ccccc2)=NN1c1ccccc1,i,-30,-64,2.4,x,17,x,x,1
Cc1ccc(CN2C(=O)CCC2(C)c2nnnn2-c2c(C)cccc2C)cc1 (configuration not stated),i,-33,-38,0.2,x,4.7,x,x,x
CCOCCCN(C(=O)CNC(=O)c1ccco1)C(C(=O)NC1CCCC1)c1ccccc1C (configuration not stated),x,x,x,x,0.69,0.5,-0.2,-12,2
COc1ccc(OC)c(NC(=O)CSc2ncccc2C(=O)O)c1,x,x,x,x,0.72,1.1,2.1,-15,1
COc1ccc(S(=O)(=O)CCC(=O)N2CCN(c3cccc(Cl)c3)CC2)cc1,i,-4,-21,0.4,0.68,3.4,2.5,-8,-16
Cc1cc(C)n(CC(C)NC(=O)CCc2nnc(CCc3ccccc3)o2)n1 (configuration not stated),i,5,1,1.3,0.69,-0.3,1.5,-3,4

# Exported as tab-separated lines: entries from further up.
Molecule	FGF22 binding	Ecoli rRNA inh	Ecoli rRNA inh OD600	Ecoli rRNA inh RFP	Ecoli growth	HNF4A DNA FP	UCH37 inh	ALR inh	Beta2AR agonist
CSc1ccc(NC(=O)Nc2cccn(Cc3ccccc3)c2=O)cc1	i	-30*	-19*	0.6*	0.67	0.6	-28	-9	2
CC(=O)Nc1ccc(SCC(=O)Nc2cc(C(C)(C)C)nn2-c2ccccc2)cc1	i	-14	-20	-4.3	0.72	-1.5	-1.2	89*	-1
CCN(CC)C(=O)c1cccc(-c2csc(C(C)(O)c3ccccc3)n2)c1 (configuration not stated)	i	-1	-17	-3.0	x	1.4	x	x	x
CCN(CC)C(=O)Oc1ccccc1NC(C)=O	x	x	x	x	0.73	5.0	0.7	-2	4

# (cont.)
SMILES,FGF22 binding,Ecoli rRNA inh,Ecoli rRNA inh OD600,Ecoli rRNA inh RFP,Ecoli growth,HNF4A DNA FP,UCH37 inh,ALR inh,Beta2AR agonist
Nc1ncc(N=Nc2cc(C(=O)O)ccc2Cl)s1,i,-16,-12,1.8,0.63,-16,14,66,-6
CCOc1ccc(C2CC(c3ccc(F)cc3)Nc3nc(N)nn32)cc1 (configuration not stated),i,14,7,2.8,0.74,-1.9,1.8,-24,-3
COc1cc(/C=C(/NC(C)=O)C(=O)O)cc(Cl)c1OCc1ccc(Br)cc1,i,-4,-1,1.4,0.7,3.7,2.9,95*,-4
Cc1cc(C(C)(C)C)cc(C)c1S(=O)(=O)N1CC(=O)Nc2ccccc21,+,-55,-82,-26,0.66,-3.6,5.1,-14,-8
CC(=O)Nc1nnc(SCc2ccccc2F)s1,x,x,x,x,0.67,-6.6,-0.2,-11,-4
CCOC(=O)c1c(C)n(C)c2ccc(OCC(O)Cn3nc(C)c(Br)c3C)cc12 (configuration not stated),x,x,x,x,0.73,-1.1,1.0,x,13
COC[C@@H]1CCCN1c1ccc2c(c1)O[C@H](COCc1ccccc1)CN([C@H](C)c1ccccc1)S2(=O)=O,i,3,10,-2.9,x,-0.3,x,x,x
Nc1nonc1-c1nc2ccccc2n1Cc1ccc(Cl)cc1,x,x,x,x,0.65,5.1,2.4,-11,-2
CCN(CCn1cccn1)C(=O)CC1C(=O)NCCN1Cc1cccc(OC)c1OC (configuration not stated),x,12,22,0.5,0.69,1.1,4.1,-20,-3
O=C(Nc1ccc(O)cc1)c1ccc(C(=O)c2ccccc2)o1,x,x,x,x,0.7,2.2,3.6,97*,-2
CCC(=O)N1CCc2cc(Br)c(S(=O)(=O)CCC(=O)NCCOC)cc21,i,6,16,-0.4,0.68,-3.2,1.0,x,-2
C=CCn1c(Cn2c(-c3cnccn3)nc3ccccc32)nc2ccccc21,i,18,11,3.5,x,1.8,x,x,x
CCC(C)(C)c1ccc(OCC(=O)N(C)C)c(C(C)(C)CC)c1,i,-15,-32,9.6,0.7,-2.9,4.6,0,7
CCN(CC)c1ccc(-n2c(C)c(C(C)=O)c(C(C)=O)c2C)cc1,x,x,x,x,0.73,3.3,1.4,x,9
CCCc1ccc(OCCNC(=O)C2CCCCC2)cc1,i,-4,-4,-0.1,0.66,3.2,2.2,3,-8
C=CC[C@H](CC(=O)N(CCO)Cc1ccccc1)C(=O)N[C@H](COC(=O)[C@@H](CC=C)CC(=O)OC(C)(C)C)Cc1ccccc1,i,3,-1,1.2,x,-1.8,1.9,1,0
CCOc1ccc(-c2nnc3sc(COc4ccc(Cl)cc4)nn23)cc1,x,x,x,x,0.82,-7.0,2.3,x,-4
Fc1ccc(NC(=S)NCc2ccccn2)cc1,x,x,x,x,0.68,-0.9,0.5,-7,4
NCCSC1CC(=O)N(c2ccc(F)cc2)C1=O (configuration not stated),i,-1,8,-0.3,0.69,1.4,4.5,-7,-12
COc1ccc(N2CCN(c3ccc(N4C(=O)COCC4=O)cc3[N+](=O)[O-])CC2)cc1,x,x,x,x,0.74,2.3,-1.4,-3,x

# This is a subset; count on the stated rates, not on these rows.
